Vif-A3F inh – qHTS for Inhibitors of Vif-A3F Interactions: qHTS. Potency, µM (highest dose often 46.1 µM), without a hit: at the top dose activity, negative = active. HeLa A3F-eYFP + Vif (tagged APOBEC3F with the HIV-1 protein that degrades it), YFP fluorescence increase. 0.2% of 390,000 active; further: potency means the concentration at half of the fitted maximal effect; % of control where 0% means no effect; nearly all actives have a fitted effect of over 65% in size
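Fluorescence increase (Ex 488/Em 500-530) after overnight compound treatment at 37 deg C flags inhibition of Vif-driven A3F-eYFP loss in stable HeLa A3F-eYFP/Vif cells seeded overnight beforehand.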
D2 potentiator – HTS Assay for Positive Allosteric Modulators of the Human D2 Dopamine Receptor: Primary Screen for Potentiators; 0.34% of 340,000 active; potentiation, % at 10 µM; HEK293 T-REx D2, calcium flux, EC20 dopamine potentiation; D(2) dopamine receptor (Homo sapiens), P14416;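 active means potentiation over 3 SD above the plate norm, cut at about 30% in these data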; further: 0% is about no effect
Target sequence (P14416 whole entry, looked up): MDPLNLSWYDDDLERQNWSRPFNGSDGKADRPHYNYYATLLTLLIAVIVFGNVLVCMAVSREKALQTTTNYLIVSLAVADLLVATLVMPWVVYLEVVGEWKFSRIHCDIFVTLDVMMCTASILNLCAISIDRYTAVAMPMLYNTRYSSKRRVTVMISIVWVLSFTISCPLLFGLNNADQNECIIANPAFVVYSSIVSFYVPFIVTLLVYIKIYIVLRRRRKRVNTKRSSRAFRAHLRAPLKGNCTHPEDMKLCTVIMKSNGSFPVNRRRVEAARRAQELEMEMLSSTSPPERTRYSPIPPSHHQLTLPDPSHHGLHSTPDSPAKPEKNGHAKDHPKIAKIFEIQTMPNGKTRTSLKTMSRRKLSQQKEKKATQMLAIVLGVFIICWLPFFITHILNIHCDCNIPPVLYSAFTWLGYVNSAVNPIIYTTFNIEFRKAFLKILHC
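Calcium flux readout, no-wash dye, 1 read/s. Inducible HEK293 Trex D2 line, overnight 30 C. Compound alone 180 s (agonist flags), then EC20 dopamine, another 180 s to score potentiation.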
RXFP1 antag – qHTS Assay for Antagonists of the Relaxin Receptor RXFP1 | 0.59% of 350,000 active | activity change, negative = inhibition, % at 57.5 µM | HEK293-RXFP1, relaxin-stimulated cAMP HTRF, 30 min; active compounds read low | Relaxin receptor 1 (Homo sapiens), Q9HBX9;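 active means activity change of -60% or lower, but not beyond a set lower limit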; further: on the % scale 0 is the no-effect control and ±100 the full control effect
GRP78 ERSR act – qHTS for Inducers of the Endoplasmic Reticulum Stress Response (ERSR) in Human Glioma: qHTS; U87-MG GRP78 promoter luciferase reporter, 16 h; Potency, µM, inactives show at the top dose activation, hits mostly activators; 0.02% of 420,000 active; AID 602332, 2012; further: potency means the concentration at half of the fitted maximal effect; series mostly up to about 76 µM; % of control where 0% means no effect; nearly all actives have a fitted effect of over 35% in size
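Stably transfected U87-MG human glioma cells carrying a GRP78-based luminescent sensor were seeded at 1000 cells/well, pin-dosed with compounds and incubated 16 h. Luciferase reagent was then added, and end-point luminescence was read after 10 min at room temperature.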
RXFP1 agonist – qHTS Assay for Agonists of the Relaxin Receptor RXFP1 | Relaxin receptor 1 (Homo sapiens), Q9HBX9 | HEK293T-RXFP1 cAMP TR-FRET, 30 min; response scale: percent of porcine relaxin response, buffer zero | Potency, µM (highest dose often 57.5 µM), for the others: at the top dose activation, usual class: activators | 0.3% of 370,000 active; further: potency means the concentration at half of the fitted maximal effect; on the % scale 0 is the no-effect control and ±100 the full control effect; nearly all actives have a fitted effect of over 60% in size; many of its hits are not listed in these tables
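cAMP rise read by TR-FRET after 30 min, 37C compound exposure (up to 58 uM) in RXFP1-transfected HEK293 cells with Ro 20174 present. EC50 from Hill-equation fits, with 29 nM porcine relaxin as 100% and buffer as basal.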
* = called active by the depositor; . = not tested or not shown; & = joins results of further samples. Unless noted, the call rests on the fitted dose curve; in most records, active means well fitted curve in the direction sought with a large enough effect; inconclusive means small, poorly fitted or top-dose-only effect, or another doubt; inactive means no such curve, though single readings can be large; an effect the other way counts as inactive or inconclusive. Some of the compounds tested. The share of hits here may be higher or lower than overall.

Second line of a record: Vif-A3F inh | D2 potentiator | RXFP1 antag | GRP78 ERSR act | RXFP1 agonist
> NC1CC1c1ccccc1 (configuration not stated)
→ . | . | . | -1.4% | .
> CC1C(=O)OC2O[C@]3(C)CC[C@H]4C(C)CCC1[C@]24OO3 (some centres not stated)
→ . | . | . | -4.0% | .
> CN1C[C@H](CNC(=O)OCc2ccccc2)C[C@@H]2c3cccc4c3c(cn4C)C[C@H]21
→ -2.3% | -28.2 | -29.0 | -1.3%&-4.1%&-3.9%&-4.0%&-4.8% | 0.3%
> CN(C)[C@@H]1C(=O)C(C(N)=O)=C(O)[C@@]2(O)C(=O)C3=C(O)c4c(O)cccc4[C@@](C)(O)C3C[C@@H]12 (some centres not stated)
→ 3.7% | 5.7 | . | -3.2% | 11.4%
> COc1ccc(Cc2nccc3cc(OC)c(OC)cc23)cc1OC
→ 4.1% | 12.4 | -22.0 | -4.9%&-1.1%&-4.6%&-3.2%&-4.4% | 11.3%
> C[C@]12CCC3=C4CCC(=O)C=C4CC[C@H]3C1CC[C@@H]2O (some centres not stated)
→ 2.5% | 1.1 | 0.6 | -1.8% | -1.0%
> CN(C)C1C(=O)C(C(N)=O)=C(O)[C@@]2(O)C(=O)C3=C(O)c4c(O)cccc4[C@@](C)(O)C3CC12 (some centres not stated)
→ . | . | . | -3.3% | .
> C[C@@H]1CC[C@H]2[C@@H](C)C(=O)O[C@@H]3OC4(C)CC[C@@H]1[C@]32OO4
→ . | . | . | -4.1% | .
> CC1CCC2C(C)C(=O)OC3OC4(C)CCC1C32OO4 (configuration not stated)
→ 2.8% | 12.7 | -7.9 | -1.0%&-2.1% | 5.0%
> CCCN(CCC)[C@@H]1CCc2ccc(O)cc2C1
→ . | . | . | -1.0%&4.3% | .
> CC(C)N(CCC(C(N)=O)(c1ccccc1)c1ccccn1)C(C)C (configuration not stated)
→ 5.3%&-0.9% | 4.3 | 16.9 | -5.2%&-2.9%&-1.3%&-0.7%&-2.6% | 0.9%

Entries of single compounds, looked up by structure:
CN1C[C@H](CNC(=O)OCc2ccccc2)C[C@@H]2c3cccc4c3c(cn4C)C[C@H]21 as listed: Vif-A3F inh: -2.3%; D2 potentiator: -28.2; RXFP1 antag: -29.0; GRP78 ERSR act: -1.3%&-4.1%&-3.9%&-4.0%&-4.8%; RXFP1 agonist: 0.3%
CCCN(CCC)[C@@H]1CCc2ccc(O)cc2C1 as listed: Vif-A3F inh: .; D2 potentiator: .; RXFP1 antag: .; GRP78 ERSR act: -1.0%&4.3%; RXFP1 agonist: .

Six structures from above, arranged by number of heavy atoms, descending.
Second line of a record: Vif-A3F inh | D2 potentiator | RXFP1 antag | GRP78 ERSR act | RXFP1 agonist
> CN(C)[C@@H]1C(=O)C(C(N)=O)=C(O)[C@@]2(O)C(=O)C3=C(O)c4c(O)cccc4[C@@](C)(O)C3C[C@@H]12 (some centres not stated)
→ 3.7% | 5.7 | . | -3.2% | 11.4%
> CN1C[C@H](CNC(=O)OCc2ccccc2)C[C@@H]2c3cccc4c3c(cn4C)C[C@H]21
→ -2.3% | -28.2 | -29.0 | -1.3%&-4.1%&-3.9%&-4.0%&-4.8% | 0.3%
> CC(C)N(CCC(C(N)=O)(c1ccccc1)c1ccccn1)C(C)C (configuration not stated)
→ 5.3%&-0.9% | 4.3 | 16.9 | -5.2%&-2.9%&-1.3%&-0.7%&-2.6% | 0.9%
> CC1C(=O)OC2O[C@]3(C)CC[C@H]4C(C)CCC1[C@]24OO3 (some centres not stated)
→ . | . | . | -4.0% | .
> CCCN(CCC)[C@@H]1CCc2ccc(O)cc2C1
→ . | . | . | -1.0%&4.3% | .
> NC1CC1c1ccccc1 (configuration not stated)
→ . | . | . | -1.4% | .

Bioassay records: PubChem BioAssay, National Center for Advancing Translational Sciences (NCATS)
